Rango complex inh: inhibitors of Rango-importin beta complex formation. Q14974. Potency, µM (top dose mostly 92.2 µM), for inactives: at the top dose inhibition of complex formation. Rango CFP/YFP FRET sensor + importin beta, 45 min. 0.031% of 340,000 active; active = rising FRET ratio curve, often small or poorly fitted; inconclusive = mostly compound fluorescence or quenching in the first reads; inactive = flat curves in all reads;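 further: potency means the concentration at half of the fitted maximal effect; 0% = DMSO wells and 100% = buffer wells lacking importin beta; nearly all actives have a fitted effect of over 15% in size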
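FRET biosensor Rango (snurportin 1 IBB between N-terminal EYFP and C-terminal Cerulean), 50 nM in PBS/1 mM DTT/0.02% Tween-20/0.1% BSA, preincubated 5 min RT with compound; 0.125 microM importin beta added, 45 min RT, CFP/YFP FRET ratio read.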
miR-21 reporter: raises the signal of a miR-21 reporter; HeLa miR-21 FLuc reporter, luciferase, 48 h; Potency, µM (highest dose often 38.3 µM), without a hit: at the top dose reporter change, positive = more light; 340,000 tested, under 10 active; active = well fitted rising curve with a large enough effect; inconclusive = small, poorly fitted or top-dose-only effect; inactive = no such curve, though single readings can be large or run the other way;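 further: % of control where 0% means no effect; miR-21 action dims this reporter so a rising signal means less miR-21 action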
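HeLa cells endogenously expressing miR-21, stably carrying CMV-driven firefly luciferase with a downstream miR-21 binding site, 2000 cells/well. Titrations up to approximately 40 uM, 48 hours; luciferase luminescence read.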
GLA inh pH 4.5: blocks human alpha-galactosidase A at pH 4.5. purified enzyme, 4-MU-alpha-Gal fluorescence, pH 4.5. activity change, negative = inhibition, % at 105 µM. AID 1467. P06280. 230,000 tested, under 10 active; inconclusive = small, poorly fitted or top-dose-only inhibition, or a rising curve; inactive = flat fitted curve, though single readings scatter; no compound was filed as active;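 further: 0% = full activity with enzyme and -100% = basal without enzyme; dose as in the result columns while the protocol names 77 µM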
Target sequence (P06280 whole entry, looked up): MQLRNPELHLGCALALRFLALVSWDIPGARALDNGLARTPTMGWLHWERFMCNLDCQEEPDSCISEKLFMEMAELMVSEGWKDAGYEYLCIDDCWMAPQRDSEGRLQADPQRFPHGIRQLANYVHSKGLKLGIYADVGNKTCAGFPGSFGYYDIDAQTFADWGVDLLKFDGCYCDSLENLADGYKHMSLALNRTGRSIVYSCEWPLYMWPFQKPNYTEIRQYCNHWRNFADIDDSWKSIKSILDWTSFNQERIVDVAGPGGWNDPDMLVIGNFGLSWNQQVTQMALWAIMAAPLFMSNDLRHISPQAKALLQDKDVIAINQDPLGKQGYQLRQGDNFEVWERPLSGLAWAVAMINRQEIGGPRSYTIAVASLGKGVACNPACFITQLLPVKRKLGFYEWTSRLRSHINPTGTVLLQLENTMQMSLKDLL
Rango release inh: inhibitors of RanGTP-induced Rango-importin beta complex dissociation | Biochemical FRET Rango-importin beta, RanGTP-induced dissociation | Potency, µM (highest dose often 46.1 µM), inactives show at the top dose activity change, negative = inhibition | 0.071% of 340,000 active | AID 540253; active means falling FRET ratio curve, often poorly fitted, with flat reads before Ran was added; inconclusive means other falling curves, or compound fluorescence or quenching; inactive means flat or rising ratio curve;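 further: potency means the concentration at half of the fitted maximal effect; % of control where 0% means no effect; nearly all actives have a fitted effect of over 45% in size; -100% = wells without RanGTP and RCC1; the record marks most hits as doubtful in a second field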
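Rango (0.1 uM)–importin beta (0.25 uM) complex; RanGTP-RCC1 trigger; 45 min RT; CFP/YFP FRET read.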
Active calls of the source: *; ? = inconclusive; / = not tested or not shown; & = joins results of further samples; [ ] = another dose, or the depositor's remark. These rows are one share of the data; rates above refer to the full screens.

SMILES	Rango complex inh	miR-21 reporter	GLA inh pH 4.5	Rango release inh
COc1ccccc1C(CNC(=O)CNC(=O)c1ccccc1Cl)N1CCCC1 (stereo unspecified)	1.2%	/	/	1%
c1ccc(CN2CCN(c3nc(-c4ccccc4)nc4ccccc34)CC2)cc1	0.4%	5%	-1	6%
CCNC(=S)N(Cc1ccccc1)Cc1nc2ccccc2c(=O)[nH]1	0.7%	-7%	-2	0%
CC(C)(C)c1nc(NCCO)c2nnn(Cc3ccccc3)c2n1	2.6%	-9%	/	-1%
O=C(Nc1ccc(Cl)c(Cl)c1)N1CC=CCC1	-0.2%	-33%	-7	-6%
Cc1cc(C)cc(NC(=O)C2CCCN(c3nccc(C)n3)C2)c1 (stereo unspecified)	0.9%	-6%	3	-7%
Cc1sc2nc(CSCC(=O)Nc3ccc(C(=O)N(C)C)cc3)[nH]c(=O)c2c1C	?	/	/	-27%
Cc1ccccc1N1CCN(C(=O)c2ccccc2NC(=O)/C=C\C(=O)O)CC1	-0.4%	0%	3	21%
NC(=O)c1ccccc1NC(=O)C(c1ccccc1)c1ccccc1	0.3%	/	/	-14%
CC(C)Sc1nc(N2CCCC2)c2c(c1C#N)CC(C)(C)OC2	-0.3%	-9%	-4	-3%
Nc1ccccc1SC/C=C/CSc1ccccc1N	0.5%	-12%	/	-15%
C[C@H](NC(=O)Nc1ccccc1F)C(=O)O	-0.4%	4%	1	1%
COc1ccc(C(C)=O)cc1COC(=O)c1cc2ccccc2cc1O	-2.8%	-1%	/	-13%
CC(C)CSc1nc2ccccc2n1CC(=O)O	7.3%	-1%	3	-4%
CCc1n[nH]c2c1/C(=N\O)CC(C)(C)C2	4.1%	5%	7	3%
CCOC(=O)/C(C#N)=C1/C=CN(c2ccccc2)C=N1	4.6%	-42%	-8	4%
CCCCCn1c(=O)c(C(=O)OCC)c(Cl)c2ccccc21	-2.3%	-1%	-3	2%
Cc1ccc(C)c(NC(=O)CCC(=O)N/N=C/c2ccc[nH]2)c1	-3.8%	-1%	3	-18%
CCOC(=O)C1=C(C)N(C)C(=O)NC1c1c(OC)ccc2ccccc12 (stereo unspecified)	-2.2%	-3%	/	0%
O=[N+]([O-])c1cccc(COc2ccccc2CN2CCOCC2)c1	0.6%	/	/	5%
CN(C)CC1CCCCC1OC(=O)c1ccc(Cl)cc1Cl (stereo unspecified)	0.9%	-5%	1	14%
Cc1ccc(C)c(OCCCC(=O)Nc2ccc(N3CCOCC3)cc2)c1	/	-1%	3	/
Cn1cc(P(=S)(N2CCOCC2)N2CCOCC2)cc1P(=S)(N1CCOCC1)N1CCOCC1	-0.1%	1%	8	-20%
Cc1ccc(N(CC(=O)NCc2ccc3c(c2)OCO3)S(=O)(=O)c2c(C)noc2C)cc1	-0.2%	-11%	-13	-3%
COc1ccccc1-c1nc(-c2ccc(C)nc2OC)no1	0.9%	-66%	-1	-4%
CSc1ccc(S(=O)(=O)N2CCC(C(=O)Nc3ccc(C(N)=O)cc3)CC2)cc1	1.8%	8%	/	6%
CC1(C)Cc2nc3sc4c(N(CCO)CCO)nnnc4c3cc2CO1	0.7%	-42%	-3	-21%
O=C(CN1CCCCC1)Nc1nc(-c2ccc(F)c(F)c2)cs1	0.4%	1%	/	4%
COc1ccc(NC(=S)N(CCCN2CCOCC2)Cc2ccccn2)cc1	-0.3%	-13%	8	4%
COc1ccc(CN(CC(=O)NCC2CCCO2)C(=O)CNS(=O)(=O)c2ccccc2)cc1 (stereo unspecified)	-0.3%	0%	/	-14%
CC(=O)NC(=S)Nc1ccc(NC(=O)c2cccnc2)cc1	0.7%	-1%	5	2%
Cc1cccc(-n2c(-c3ccncc3)n[nH]c2=S)c1C	2.0%	2%	-4	9%
CC1=CS(=O)(=O)CC1Sc1ncn[nH]1 (stereo unspecified)	4.7%	-6%	1	1%
CN(C)c1nc(NCc2ccccc2)nc(SCC(=O)Nc2ccc(Cl)c(Cl)c2)n1	?	15%	-3	17%
COc1cc(OC)c(NC(=O)c2c(-c3ccccc3)noc2C)cc1Cl	1.0%	-2%	-1	6%
O=S(=O)(NCCc1csc(-c2cccnc2)n1)c1ccc2c(c1)OCCO2	-0.4%	-6%	6	-3%
Cc1cc(NC(=O)C2CCN(S(=O)(=O)Cc3ccccc3)CC2)ccc1-n1cnnn1	1.9%	1%	-12	-6%
CC(Oc1ccc(Cl)cc1)C(=O)Nc1cccc(S(=O)(=O)N2CCOCC2)c1 (stereo unspecified)	-3.9%	/	/	3%
COc1cc(C2/C(=C(\O)c3ccc4c(c3)OCCO4)C(=O)C(=O)N2Cc2ccccc2)ccc1O (stereo unspecified)	2.8%	-5%	/	20%
Cc1nc2ccc(C(=O)OCc3nnc(-c4ccc(Br)cc4)o3)cc2nc1C	2.1%	1%	/	-15%

Part of the list above in order of SMILES length, highest first.
SMILES	Rango complex inh	miR-21 reporter	GLA inh pH 4.5	Rango release inh
COc1cc(C2/C(=C(\O)c3ccc4c(c3)OCCO4)C(=O)C(=O)N2Cc2ccccc2)ccc1O (stereo unspecified)	2.8%	-5%	/	20%
Cc1ccc(N(CC(=O)NCc2ccc3c(c2)OCO3)S(=O)(=O)c2c(C)noc2C)cc1	-0.2%	-11%	-13	-3%
Cn1cc(P(=S)(N2CCOCC2)N2CCOCC2)cc1P(=S)(N1CCOCC1)N1CCOCC1	-0.1%	1%	8	-20%
COc1ccc(CN(CC(=O)NCC2CCCO2)C(=O)CNS(=O)(=O)c2ccccc2)cc1 (stereo unspecified)	-0.3%	0%	/	-14%
Cc1cc(NC(=O)C2CCN(S(=O)(=O)Cc3ccccc3)CC2)ccc1-n1cnnn1	1.9%	1%	-12	-6%
CN(C)c1nc(NCc2ccccc2)nc(SCC(=O)Nc2ccc(Cl)c(Cl)c2)n1	?	15%	-3	17%
CC(Oc1ccc(Cl)cc1)C(=O)Nc1cccc(S(=O)(=O)N2CCOCC2)c1 (stereo unspecified)	-3.9%	/	/	3%
Cc1nc2ccc(C(=O)OCc3nnc(-c4ccc(Br)cc4)o3)cc2nc1C	2.1%	1%	/	-15%
CCOC(=O)C1=C(C)N(C)C(=O)NC1c1c(OC)ccc2ccccc12 (stereo unspecified)	-2.2%	-3%	/	0%
COc1ccccc1C(CNC(=O)CNC(=O)c1ccccc1Cl)N1CCCC1 (stereo unspecified)	1.2%	/	/	1%
Cc1ccc(C)c(NC(=O)CCC(=O)N/N=C/c2ccc[nH]2)c1	-3.8%	-1%	3	-18%
CCNC(=S)N(Cc1ccccc1)Cc1nc2ccccc2c(=O)[nH]1	0.7%	-7%	-2	0%
O=[N+]([O-])c1cccc(COc2ccccc2CN2CCOCC2)c1	0.6%	/	/	5%
COc1ccc(C(C)=O)cc1COC(=O)c1cc2ccccc2cc1O	-2.8%	-1%	/	-13%
NC(=O)c1ccccc1NC(=O)C(c1ccccc1)c1ccccc1	0.3%	/	/	-14%
CCCCCn1c(=O)c(C(=O)OCC)c(Cl)c2ccccc21	-2.3%	-1%	-3	2%
Cc1cccc(-n2c(-c3ccncc3)n[nH]c2=S)c1C	2.0%	2%	-4	9%
CN(C)CC1CCCCC1OC(=O)c1ccc(Cl)cc1Cl (stereo unspecified)	0.9%	-5%	1	14%
O=C(Nc1ccc(Cl)c(Cl)c1)N1CC=CCC1	-0.2%	-33%	-7	-6%
C[C@H](NC(=O)Nc1ccccc1F)C(=O)O	-0.4%	4%	1	1%
CC1=CS(=O)(=O)CC1Sc1ncn[nH]1 (stereo unspecified)	4.7%	-6%	1	1%
CC(C)CSc1nc2ccccc2n1CC(=O)O	7.3%	-1%	3	-4%

Later entries.
SMILES	Rango complex inh	miR-21 reporter	GLA inh pH 4.5	Rango release inh
Cc1cccc(C(=O)OCC(=O)Nc2c(C)nn(-c3ccccc3)c2C)c1O	-0.9%	/	/	10%
COc1cc2c(cc1OC)C(c1c(Cl)cccc1Cl)NC(=O)C2 (stereo unspecified)	-0.5%	28%	/	6%
CCC(=O)NCCc1nc2ccccc2n1Cc1ccccc1	-0.1%	-25%	-7	1%
CCOc1cc2oc(=O)c3c(c2cc1Cl)CCC3	-2.4%	-16%	5	-5%
COc1ccc(COCCN2CCN(S(=O)(=O)c3ccc(C)cc3)CCC2=O)cc1	0.4%	-8%	-5&0	2%
Cc1nn(-c2ccncc2)c2c1C(=O)CC(C)(C)C2Br (stereo unspecified)	0.5%	/	/	17%
CCOC(=O)C1CCN(C(=O)c2n[nH]c(=O)c3ccccc23)CC1	?	-3%	1	-1%
CC(C)(C)CC(=O)Nc1nnc(-c2cccs2)s1	0.6%	-61%	2	5%
COc1ccc(C2C(C(C)=O)=C(O)C(=O)N2c2ccccn2)cc1 (stereo unspecified)	3.6%	-13%	/	5%
COc1ccc(-c2ccc3c(c2)C2CC3CCN2S(=O)(=O)c2ccccc2C)cc1 (stereo unspecified)	2.0%	/	/	4%
O=c1[nH]c(CSc2nnc(NCCCN3CCOCC3)s2)nc2cc(Cl)ccc12	-3.9%	1%	0	2%
COC(=O)c1sccc1NS(=O)(=O)c1ccccc1[N+](=O)[O-]	-3.2%	/	/	15%
COc1ccc(C2=NS(=O)(=O)N(C)C(C(=O)N3C(C)CCCC3C)=C2)cc1 (stereo unspecified)	-1.1%	0%	/	-4%
O=C(CSc1nc2ccccc2c(=O)n1CCC(=O)N1CCCCC1)NCc1ccccc1	0.2%	1%	-3	3%
CCCc1cc(=O)oc2cc(C)cc(OC(=O)c3ccco3)c12	-0.9%	-4%	-7	-15%
COc1ccc(N2C(=O)CC(Sc3nc4c(cc3C#N)CCC4)C2=O)cc1 (stereo unspecified)	?	-9%	5	1%
Cc1ccc(N2C(=O)C3C4C=CC(CNC(=S)N5CCN(c6cccc(C)c6)C(C)C5)(O4)C3C2=O)cc1 (stereo unspecified)	-2.1%	2%	6[21.1 µM]	0%
CCC(C)N(C(=O)Cn1cnc2c1c(=O)n(C)c(=O)n2C)C1CCS(=O)(=O)C1 (stereo unspecified)	-0.2%	/	/	0%
O=C(Nc1ccc2c(c1)C(=O)OC2)c1ccc(Cl)cc1	-1.1%	-23%	/	13%
N#CC1=C(N)OC2=C(C(=O)CCC2)C1CCc1ccccc1 (stereo unspecified)	?	0%	5	-12%

Some of these compounds in order of their number in Rango complex inh, descending.
SMILES	Rango complex inh	miR-21 reporter	GLA inh pH 4.5	Rango release inh
CC1(C)Cc2nc3sc4c(N(CCO)CCO)nnnc4c3cc2CO1	0.7%	-42%	-3	-21%
CCOC(=O)C1=C(C)N(C)C(=O)NC1c1c(OC)ccc2ccccc12 (stereo unspecified)	-2.2%	-3%	/	0%
COC(=O)c1sccc1NS(=O)(=O)c1ccccc1[N+](=O)[O-]	-3.2%	/	/	15%

The list continues:
SMILES	Rango complex inh	miR-21 reporter	GLA inh pH 4.5	Rango release inh
CC(C)CCNC(=O)C(c1cccnc1)N(Cc1ccccc1)C(=O)Cn1nnc2ccccc21 (stereo unspecified)	-0.6%	/	/	-5%
O=C(Oc1cccnc1)c1ccco1	-2.1%	-2%	8	-3%
CC(C)NC(=O)N(C)C[C@H]1Oc2ccc(NC(=O)CCC(F)(F)F)cc2C(=O)N([C@H](C)CO)C[C@@H]1C	-1.6%	/	/	-17%
Cc1c(N2C(=O)/C(=C/C3CC=CCC3)SC2=S)c(=O)n(-c2ccccc2)n1C (stereo unspecified)	-0.6%	-2%	7	-4%
CC(=O)Nc1ccc(-c2cc3ccccc3o2)cc1	0.6%	-48%	8	6%
COCCSc1nnc(NC(=O)c2cc(C(=O)OC)cc([N+](=O)[O-])c2)s1	-2.1%	0%	-3	-3%
COc1ccc(/C=C/C(=O)NC(=S)N2CCCC(C(N)=O)C2)cc1 (stereo unspecified)	3.8%	0%	/	?
COc1cc2[nH]c3c(=O)n(CCN4CCOCC4)cnc3c2cc1OC	2.8%	-6%	5	10%

Screens (PubChem BioAssay)
